Screening results as filed in PubChem BioAssay.
Vaccinia pol inh – vaccinia E9 polymerase processive synthesis inhibitors, primary screen, biochemical, absorbance; 0.94% of 46,000 active; Vaccinia virus DNA polymerase (E9) processive complex; normalized absorbance, % (concentration not given with the values); AID 493162, 2011; in vitro processive DNA synthesis, absorbance read-out; active compounds read low; some inactives read as strong as hits;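 active means replicate mean up to 90% and picked by the depositor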;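 further: 100% = median of the test wells of a plate; 100 nL library stock went into each well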
* hit, by the source's call.

The first 2 records, to show the layout:
How did O=C(CNC1=NCCC1)c1ccccc1 do in these assays?
Vaccinia pol inh: 99.5

How did CC(C(=O)O)N1Cc2ccccc2C1=O (centres undefined) do in these assays?
Vaccinia pol inh: 107.6

Main list, from the start:
How did O=C(CNC1=NCCC1)c1ccccc1 do in these assays?
Vaccinia pol inh: 99.5

How did CC(C(=O)O)N1Cc2ccccc2C1=O (centres undefined) do in these assays?
Vaccinia pol inh: 107.6

How did O=C1c2ccccc2CN1C(CO)Cc1ccccc1 (centres undefined) do in these assays?
Vaccinia pol inh: 110.0

Results for CCSc1cc(C)nc(NC(=O)CC)n1 ?
Vaccinia pol inh: 106.2

Results for c1ccc(C2Sc3ccccc3N=C3c4ccccc4SCC32)cc1 (centres undefined) ?
Vaccinia pol inh: 85.6

Results for CCC(=O)NC(Nc1sc2c(c1C#N)CCCC2)(C(F)(F)F)C(F)(F)F ?
Vaccinia pol inh: 100.0

How did COC(=O)C1Cc2c([nH]c3ccccc23)C(C)N1 (centres undefined) do in these assays?
Vaccinia pol inh: 100.2

What do the screens show for `COc1ccccc1C(CCNS(=O)(=O)c1ccc(C)cc1)c1ccco1` (centres undefined)?
Vaccinia pol inh: 100.0

What do the screens show for `Cc1ccc(-c2cc(-c3c(C)nn(C)c(=O)c3N)[nH]n2)cc1`?
Vaccinia pol inh: 99.9

Results for Nc1cc(Cl)ccc1C(=O)OCC(=O)NCC1CCCCC1 ?
Vaccinia pol inh: 96.2

How did C[N+](C)(Cc1ccccc1)Cc1ccccc1 do in these assays?
Vaccinia pol inh: 100.3

What do the screens show for `CCOc1ccccc1NC(=O)Cn1cc(S(=O)(=O)N2CCC(C)CC2)c2ccccc2c1=O`?
Vaccinia pol inh: 99.1

How did COc1ccc(C(=O)Nc2ccc3c(c2)C(=O)N(CCC(=O)O)C3=O)cc1 do in these assays?
Vaccinia pol inh: 98.8

How did COc1cc2nc(SCc3ccc(C)cc3)n3nc(-c4ccccc4)nc3c2cc1OC do in these assays?
Vaccinia pol inh: 102.8

Results for O=C(c1ccc(Cl)cc1)N1CCN(C(c2ccccc2)c2ccccc2)CC1 ?
Vaccinia pol inh: 100.7

What do the screens show for `COc1cc(SC)ccc1C(=O)Nc1ccccc1C(N)=O`?
Vaccinia pol inh: 98.5

What do the screens show for `O=C(O)Cn1nnc(-c2ccccc2)n1`?
Vaccinia pol inh: 91.8

What do the screens show for `CC(=O)N[C@@H]1[C@@H](C(O)[C@H](O)CO)O[C@](O)(C(=O)O)C[C@@H]1O` (some centres undefined)?
Vaccinia pol inh: 91.3

What do the screens show for `CN1C2CCC1CC(NCc1ccccc1)C2` (centres undefined)?
Vaccinia pol inh: 103.0

What do the screens show for `CCN1CCN(c2c(C(=O)c3ccc(C)c(C)c3)cnc3ccc(C)cc23)CC1`?
Vaccinia pol inh: 98.4

How did CC(C)c1cc(C(C)C)c(N)c(C(C)C)c1 do in these assays?
Vaccinia pol inh: 100.1

How did Cn1cnnc1SCN1C(=O)c2ccccc2C1=O do in these assays?
Vaccinia pol inh: 99.1

How did COCCN1Cc2cccc(C(=O)N3CCN(c4ccc(F)cc4)CC3)c2C1=O do in these assays?
Vaccinia pol inh: 98.9

How did COc1cc(CNC(=O)c2ccccc2SC)cc(OC)c1OC do in these assays?
Vaccinia pol inh: 101.0

Results for O=C(CSCCc1ccccn1)Nc1ccc(Br)cc1F ?
Vaccinia pol inh: 110.7

How did O=C1CC(n2c(=O)oc3ccccc32)C2COC1O2 (centres undefined) do in these assays?
Vaccinia pol inh: 101.4

How did Cc1ccc(SC(=O)c2ccc(OC(F)(F)F)cc2)cc1 do in these assays?
Vaccinia pol inh: 97.8

Results for CCOc1ccc(C(=O)Nc2c3c(nn2-c2cccc(Cl)c2)CS(=O)C3)cc1 (centres undefined) ?
Vaccinia pol inh: 100.6

Results for Cc1ccccc1N1C(=O)CSC1=C(C#N)C#N ?
Vaccinia pol inh: 96.7

How did CCOC(=O)c1ccccc1Oc1c(F)c(F)nc(NCCO)c1F do in these assays?
Vaccinia pol inh: 99.3

What do the screens show for `CCOC(=O)CCc1c(CC(=O)OCC)c[nH]c1/C=N/O`?
Vaccinia pol inh: 31.1*

What do the screens show for `Cc1cccn2cc(COc3ccc(Cl)cc3)nc12`?
Vaccinia pol inh: 97.8

How did CCOc1ccc(NC(=S)N2CCn3cccc3C2c2ccc(OC)cc2)cc1 (centres undefined) do in these assays?
Vaccinia pol inh: 101.7

What do the screens show for `COc1ccc(-c2cc(C(F)(F)F)nc(N3CCc4ccccc4C3)n2)cc1OC`?
Vaccinia pol inh: 100.7

Results for CCOn1c(=O)c(=O)n(OC)c2ccccc21 ?
Vaccinia pol inh: 100.1

How did CN=C1S/C(=C\c2sccc2C)C(=O)N1C do in these assays?
Vaccinia pol inh: 99.1

Results for O=C(COc1ccc2c3c(c(=O)oc2c1)CCC3)c1ccccc1 ?
Vaccinia pol inh: 99.8

Results for CC(=O)NCCc1ccc(S(=O)(=O)N2CCCCC2)cc1 ?
Vaccinia pol inh: 100.0

What do the screens show for `O=c1[nH]c(=S)[nH]c2c1C(C1CCCCC1)Cc1ccccc1-2` (centres undefined)?
Vaccinia pol inh: 97.0

What do the screens show for `O=C(O)CSc1ccc2nnc(-c3ccc(F)cc3)n2n1`?
Vaccinia pol inh: 81.0

How did O=C(Oc1ccccc1N1CCCCC1)C1CCN(c2nccc(C(F)(F)F)n2)CC1 do in these assays?
Vaccinia pol inh: 91.0

Results for COC(=O)c1c(C)ncc2c1COC(C)OC2 (centres undefined) ?
Vaccinia pol inh: 97.4

How did CCc1cccc(NC(=O)CCCn2c(=O)[nH]c3ccsc3c2=O)c1 do in these assays?
Vaccinia pol inh: 101.3

What do the screens show for `O=C(OC1CCOC1=O)c1ccc(Cl)cc1` (centres undefined)?
Vaccinia pol inh: 92.5

How did CCOC(=O)CSC1C(=O)Nc2ccccc2N=C1c1ccccc1 (centres undefined) do in these assays?
Vaccinia pol inh: 100.5

How did O=C(NC1CCCCC1)c1cc(-c2ccco2)on1 do in these assays?
Vaccinia pol inh: 101.6

What do the screens show for `C=CCn1c(SCC(=O)c2ccc(C)cc2)nc2sc(CC)cc2c1=O`?
Vaccinia pol inh: 99.7

Results for CCCCn1c(C(F)(F)F)nc2c(=O)oc3ccccc3c21 ?
Vaccinia pol inh: 97.0

Results for Cc1sc(NC(=O)c2ccco2)c(C(c2ccccc2)N2CCN(C)CC2)c1C (centres undefined) ?
Vaccinia pol inh: 105.2

What do the screens show for `O=C1Nc2ccccc2C1Cc1ccccn1` (centres undefined)?
Vaccinia pol inh: 107.1

Part of the list above in order of molecular weight, low to high:
How did O=C(NC1CCCCC1)c1cc(-c2ccco2)on1 do in these assays?
Vaccinia pol inh: 101.6

What do the screens show for `Cc1cccn2cc(COc3ccc(Cl)cc3)nc12`?
Vaccinia pol inh: 97.8

What do the screens show for `CC(=O)N[C@@H]1[C@@H](C(O)[C@H](O)CO)O[C@](O)(C(=O)O)C[C@@H]1O` (some centres undefined)?
Vaccinia pol inh: 91.3

Results for O=C(c1ccc(Cl)cc1)N1CCN(C(c2ccccc2)c2ccccc2)CC1 ?
Vaccinia pol inh: 100.7

How did COc1cc2nc(SCc3ccc(C)cc3)n3nc(-c4ccccc4)nc3c2cc1OC do in these assays?
Vaccinia pol inh: 102.8

Carrying on:
Results for COc1cc(Cl)c(S(=O)(=O)Nc2ccccn2)cc1Cl ?
Vaccinia pol inh: 99.5

Results for COc1ccc(N2C(=S)SC3CS(=O)(=O)CC32C)cc1 (centres undefined) ?
Vaccinia pol inh: 99.4

What do the screens show for `CCOc1ccc(Br)cc1C1CC(=O)Nc2c1ccc(C)c2C` (centres undefined)?
Vaccinia pol inh: 101.8

Results for CCOC(=O)c1ccc(NC(=O)/C=C/c2ccc(C)o2)cc1 ?
Vaccinia pol inh: 94.9

What do the screens show for `COc1ccc(NC(=O)c2ccc3ccccc3c2OC)cc1`?
Vaccinia pol inh: 100.2

What do the screens show for `NC(=O)c1ncn([C@@H]2O[C@H](CO)[C@@H](O)[C@H]2O)c1O`?
Vaccinia pol inh: 100.7

How did N#CCN(CC#N)C(=O)c1sc2ccccc2c1Cl do in these assays?
Vaccinia pol inh: 99.3

Results for O=C(COc1cccc(NC(=O)c2ccco2)c1)c1ccccc1 ?
Vaccinia pol inh: 95.5

How did O=S(=O)(CS(=O)(=O)Sc1ccc(Cl)cc1)Sc1ccc(Cl)cc1 do in these assays?
Vaccinia pol inh: 94.9

Results for COc1ccc(NC(=O)CCN2CCCCC2)cc1 ?
Vaccinia pol inh: 97.2

How did COC(=O)c1ccc(CSc2nc3ccncc3[nH]2)cc1 do in these assays?
Vaccinia pol inh: 95.4

Results for COc1ccc(CNC(=O)c2cccs2)cc1OC ?
Vaccinia pol inh: 103.7

How did O=C1OCCC1Sc1nc2sc3c(c2c(=O)[nH]1)CCCC3 (centres undefined) do in these assays?
Vaccinia pol inh: 100.9

What do the screens show for `CN1CCN(S(=O)c2ccc3ccccc3c2)CC1` (centres undefined)?
Vaccinia pol inh: 100.8

How did C/C(N)=N/C(=S)Nc1ccc(Cl)cc1 do in these assays?
Vaccinia pol inh: 110.4

How did O=C1CCCN2N=C(SCC(=O)Nc3ccccc3)SC2=N1 do in these assays?
Vaccinia pol inh: 100.5

Results for CC(=O)N[C@@H](Cc1ccccc1)C(=O)NN ?
Vaccinia pol inh: 101.9

Results for O=C(Cc1ccccc1)N1CCN(S(=O)(=O)c2ccc(Br)cc2)CC1 ?
Vaccinia pol inh: 82.6

Results for CC(CNC(=O)c1cccc(Nc2nc3ccccc3n3cnnc23)c1)c1ccccc1 (centres undefined) ?
Vaccinia pol inh: 113.4

Results for Cn1c(=S)n(CN2CCC(c3ccccc3)CC2)c2ccccc21 ?
Vaccinia pol inh: 99.8

How did COc1ccc(-c2csc(NC(C)=O)n2)cc1C do in these assays?
Vaccinia pol inh: 94.5

How did CN(C)c1ccc(NC(=O)Nc2ccc(OC(F)(F)F)cc2)cc1 do in these assays?
Vaccinia pol inh: 108.4

What do the screens show for `CC(Sc1ncc(S(=O)(=O)c2ccccc2)c(N)n1)C(=O)Nc1ccccc1` (centres undefined)?
Vaccinia pol inh: 87.0

What do the screens show for `Cc1cc(Br)c(NC(=O)C2C(C)(C)C2(C)C)c(Br)c1`?
Vaccinia pol inh: 100.0

What do the screens show for `COc1cccc(NC2=C(C#N)C(=O)NC(c3cccc(OC)c3O)S2)c1` (centres undefined)?
Vaccinia pol inh: 98.0

Results for O=c1[nH]c(-c2cccnc2)nc2ccccc12 ?
Vaccinia pol inh: 86.5

What do the screens show for `C=C1C2(C(N)=O)CCC(C2)C1(C)C` (centres undefined)?
Vaccinia pol inh: 100.9

How did COc1ccc(-c2oc3ncn(CCO)c(=N)c3c2-c2ccc(OC)cc2)cc1 do in these assays?
Vaccinia pol inh: 100.3

What do the screens show for `CC(C)CNC(=O)c1ccc(COc2cc(Cl)ccc2Cl)o1`?
Vaccinia pol inh: 100.2

Results for c1ccc(Nc2ncnc3sc(-c4ccccc4)cc23)cc1 ?
Vaccinia pol inh: 115.6

How did c1ccc(Nc2c3c(nc4nncn24)CCC3)cc1 do in these assays?
Vaccinia pol inh: 93.2

How did COCCN1C(=O)c2ccccc2C(C(=O)N2CCN(c3ccccn3)CC2)C1c1ccc(F)cc1 (centres undefined) do in these assays?
Vaccinia pol inh: 98.5

Results for O=C1c2ccccc2C(=O)N1/N=C/c1ccccc1 ?
Vaccinia pol inh: 99.0

Results for C=CCn1c2ccccc2c2nnc(SC(CC)C(=O)Nc3nc4c(s3)CCCC4)nc21 (centres undefined) ?
Vaccinia pol inh: 99.8

Results for OCCNc1nc(-c2ccccc2)c(-c2ccccc2)s1 ?
Vaccinia pol inh: 91.3

What do the screens show for `C=CCn1c(CCCO)n[nH]c1=S`?
Vaccinia pol inh: 100.0

What do the screens show for `O=C(CN1C(=O)c2ccccc2C1=O)NCc1ccccn1`?
Vaccinia pol inh: 105.4

Results for OCCCc1nc2ccccc2[nH]1 ?
Vaccinia pol inh: 98.9

What do the screens show for `OCCNc1ncnc2c1c(-c1ccccc1)cn2-c1ccccc1`?
Vaccinia pol inh: 94.7

What do the screens show for `CN(Cc1ccccc1)S(C)(=O)=O`?
Vaccinia pol inh: 100.5

Continued, starting with the last 2 of the part before.
What do the screens show for `OCCNc1ncnc2c1c(-c1ccccc1)cn2-c1ccccc1`?
Vaccinia pol inh: 94.7

What do the screens show for `CN(Cc1ccccc1)S(C)(=O)=O`?
Vaccinia pol inh: 100.5

What do the screens show for `O=C(/C=C/c1cccc(F)c1)OCc1c(Cl)nc2sccn12`?
Vaccinia pol inh: 98.5

What do the screens show for `COc1cccc(NC(=O)c2ccncc2)c1`?
Vaccinia pol inh: 101.6

What do the screens show for `COc1ccc2c3c1O[C@H]1C[C@@H](O)C=C[C@@]31CCN(C)C2`?
Vaccinia pol inh: 100.4

Results for O=S(=O)(Cc1cccc(C(F)(F)F)c1)Cc1cccc(C(F)(F)F)c1 ?
Vaccinia pol inh: 104.5

Results for CCCCN(C)C(=O)C1c2ccccc2C(=O)N(C)C1c1ccc(OC)cc1 (centres undefined) ?
Vaccinia pol inh: 94.5

How did CC(C)(C(=O)Nc1ccccc1)N(Cc1ccccc1)C(=O)c1ccccc1 do in these assays?
Vaccinia pol inh: 106.2

What do the screens show for `COc1cc(/C=c2\sc3n(c2=NCCO)C(c2ccccc2)C(c2ccccc2)=NN=3)ccc1O` (centres undefined)?
Vaccinia pol inh: 101.0

How did O=C1c2ccccc2CCC1Sc1nnc(-c2ccccc2)o1 (centres undefined) do in these assays?
Vaccinia pol inh: 100.7

Results for CC1=C(C(=O)OC(C)C)C(c2ccccc2)NC(=S)N1 (centres undefined) ?
Vaccinia pol inh: 100.2

Results for CCNc1nc(OCC)nc(N2CCC(Cc3ccccc3)CC2)n1 ?
Vaccinia pol inh: 100.4

Results for Oc1ccccc1/C=N/n1c2ccccc2c2ccccc21 ?
Vaccinia pol inh: 101.2

This is a subset; rates above refer to the full screens.
